Mtb MbtI inh = MbtI salicylate synthase inhibitors, primary screen, biochemical, fluorescence intensity. P9WFX0. purified MbtI enzyme, fluorescence intensity read-out. inhibition, %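 (about 17 µg/mL by stock and volumes)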. 0.89% of 100,000 active;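 active means above 50% in both replicates, above 80% if mildly self-fluorescent; inactive means the rest, strongly fluorescent compounds included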;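 further: 0% = mean of negative and 100% = mean of positive controls; one replicate is shown; some compounds called inactive have numbers as strong as hits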
Target sequence (P9WFX0 whole entry, looked up): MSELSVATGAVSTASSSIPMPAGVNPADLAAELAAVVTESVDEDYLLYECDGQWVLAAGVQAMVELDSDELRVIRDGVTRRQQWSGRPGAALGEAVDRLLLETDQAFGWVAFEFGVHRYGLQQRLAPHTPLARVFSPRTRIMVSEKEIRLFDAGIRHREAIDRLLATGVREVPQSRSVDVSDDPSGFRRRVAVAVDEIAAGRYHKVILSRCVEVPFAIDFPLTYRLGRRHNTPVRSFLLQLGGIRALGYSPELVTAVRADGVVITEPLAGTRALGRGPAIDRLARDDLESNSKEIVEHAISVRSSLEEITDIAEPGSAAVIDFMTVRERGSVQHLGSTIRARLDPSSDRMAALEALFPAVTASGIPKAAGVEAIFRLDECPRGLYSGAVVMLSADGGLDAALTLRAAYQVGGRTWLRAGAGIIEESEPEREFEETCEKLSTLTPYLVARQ
MenB inh = M. tuberculosis MenB inhibitors, primary screen, biochemical, absorbance; 1,4-dihydroxy-2-naphthoyl-CoA synthase (Mycobacterium tuberculosis (strain ATCC 25618 / …; MenB enzyme assay, absorbance read-out; some hits fall short of the stated cut; inhibition, %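 (about 12 µg/mL by stock and volumes)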; 0.43% of 100,000 active; AID 540299, 2011;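 active means mean of two replicates above 30%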;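 further: 0% = no compound and 100% = wells with inactive enzyme; the first replicate is given; strong numbers were not always called active; inactives centre near -10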
Target sequence (P9WNP5 whole entry, looked up): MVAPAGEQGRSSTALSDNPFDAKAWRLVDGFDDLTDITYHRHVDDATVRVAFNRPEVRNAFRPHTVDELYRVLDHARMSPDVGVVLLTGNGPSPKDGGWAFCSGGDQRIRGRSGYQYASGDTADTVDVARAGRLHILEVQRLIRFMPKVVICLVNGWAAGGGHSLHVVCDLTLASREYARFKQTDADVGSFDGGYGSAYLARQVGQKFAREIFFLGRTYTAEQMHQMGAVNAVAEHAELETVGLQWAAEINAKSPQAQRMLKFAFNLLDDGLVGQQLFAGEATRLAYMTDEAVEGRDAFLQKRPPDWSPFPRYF
PV pol inh = poliovirus RdRp elongation inhibitors, primary screen, biochemical, fluorescence polarization, total intensity; Genome polyprotein (Poliovirus type 1 (strain Mahoney)), P03300; poliovirus polymerase elongation; stronger effect = lower value; % elongation, % (compound at 16.7 µg/mL); 0.66% of 150,000 active; AID 588519, 2011; in the data active means % elongation below about 90%; further: some results filed as inactive read as strong as hits
PV pol inh intensity = also measured in PV pol inh; calls as there; % elongation; measured here: total intensity read-out; formula for this scale not given here;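 total fluorescence in place of polarization; lower means less elongation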
An asterisk follows results filed as active; / = not tested or not shown.

Key to letters – A = Mtb MbtI inh; B = MenB inh; C = PV pol inh; D = PV pol inh intensity
[1] CSc1nc(N)nc2sc3c(O)cc(=O)[nH]c3c12
  A = 12 | B = -133 | C = 101 | D = 103
[2] CCCSc1nsc(NC(=O)CCc2nc3ccccc3c(=O)[nH]2)n1
  A = -3 | B = -8 | C = 104 | D = 112
[3] O=c1oc2cc(Oc3ncnc4c3oc3ccccc34)ccc2c2c1CCC2
  A = 5 | B = 8 | C = 104 | D = 103
[4] C/C(N)=C(/C#N)C(=O)Cn1nnc2ccccc2c1=O
  A = -4 | B = -3 | C = 107 | D = 118
[5] CSc1nnc2c(n1)OC(/C=C/c1ccco1)Nc1ccccc1-2 (stereo not given)
  A = 23 | B = -30 | C = 104 | D = 103
[6] C=CCn1c(=N)n(CC(=O)c2cccs2)c2ccccc21
  A = -4 | B = -8 | C = 103 | D = 100
[7] CC(=O)N(Cc1cccs1)C1CCOC(C)(C)C1 (stereo not given)
  A = -15 | B = -12 | C = 102 | D = 104
[8] CC(C)(C)C1CCC(=NNc2ccc(C(=O)O)cc2)CC1 (stereo not given)
  A = 26 | B = -30 | C = 102 | D = 102
[9] COc1ccccc1N1CCN(C(=O)Cn2nc(C(F)(F)F)c3c2CCC3)CC1
  A = -14 | B = -31 | C = 100 | D = 102
[10] COc1ccc(-c2nc3c4ccccc4[nH]c(=O)n3n2)cc1
  A = 7 | B = / | C = 100 | D = 103
[11] CCc1nn(CC(=O)NCc2ccc3c(c2)OCO3)c(=O)c2cc3sccc3n12
  A = 0 | B = 14 | C = 99 | D = 100
[12] Cn1nc(-c2ccc(N3CCCCC3)c(NC(=O)c3ccccc3)c2)c2ccccc2c1=O
  A = -6 | B = -27 | C = 103 | D = 104
[13] O=C(Cn1nnc(-c2ccccc2)n1)N/N=C/c1ccc(N2CCOCC2)s1
  A = -9 | B = -32 | C = 126 | D = 120
[14] Cc1c(O)ccc2c(=O)c(-c3ccccc3Cl)coc12
  A = 2 | B = / | C = 104 | D = 97
[15] Cc1cc(C(F)(F)F)c2c(C)cc(=O)n(C)c2n1
  A = 107 | B = 5 | C = 106 | D = 105
[16] CC1(C)Cc2c(sc3nc(Nc4ccccc4)[nH]c(=O)c23)CO1
  A = -225 | B = -2 | C = 101 | D = 105
[17] CC(C)(C)c1cc(C(=O)N2CCc3ccccc3C2)ccn1
  A = -7 | B = 11 | C = 99 | D = 102
[18] S=c1[nH]nc(-c2ccc3c(c2)OCO3)o1
  A = 103 | B = -48 | C = 94 | D = 100
[19] NNC(=O)COc1ccccc1
  A = -2 | B = -3 | C = 99 | D = 99
[20] CCn1c(CSc2ncccn2)nnc1SCC(=O)N1CCCCC1
  A = 9 | B = 15 | C = 100 | D = 104
[21] COc1ccc(NC(=O)CCNS(=O)(=O)c2cccc3nonc23)cc1Cl
  A = 8 | B = 5 | C = 99 | D = 100
[22] O=c1nc2n(c3ccccc13)Cc1ccccc1-2
  A = 25 | B = -13 | C = 101 | D = 108
[23] CCN=c1scc(-c2cccs2)n1/N=C(\C)CC
  A = -15 | B = -72 | C = 146 | D = 156
[24] O=C(N/N=C/c1ccco1)c1ccc(Br)o1
  A = 24 | B = -14 | C = 101 | D = 104
[25] CCOC(=O)N1CCC(=NNc2nc3ccccc3s2)CC1
  A = 3 | B = -19 | C = 106 | D = 107
[26] c1cc2c(cc1NC1CC3CCC1C3)OCO2 (stereo not given)
  A = -164 | B = 5 | C = 98 | D = 102
[27] O=C(CSc1ncccc1C(=O)O)c1cccc(C(F)(F)F)c1
  A = 8 | B = -21 | C = 101 | D = 105
[28] CSC1=N/C(=C\c2ccc(C)o2)C(=O)S1
  A = 5 | B = -34 | C = 104 | D = 102
[29] Cc1ccc2cc3c(nc2c1)N(c1ccc(C(=O)NCc2ccco2)cc1)CC3
  A = 48 | B = -3 | C = 103 | D = 109
[30] Cc1cccn2c(=O)c(/C=N/NC(N)=O)c(NCc3ccco3)nc12
  A = 10 | B = 6 | C = 101 | D = 103
[31] Cn1cnc2c(oc3ccccc32)c1=O
  A = 0 | B = -10 | C = 101 | D = 103
[32] Cc1oc2cc(OC(C)C)ccc2c(=O)c1Oc1ccccc1
  A = -16 | B = -25 | C = 99 | D = 102
[33] O=C(NC1=NCCCN1)c1c(Cl)cccc1Cl
  A = -12 | B = -28 | C = 101 | D = 106
[34] C(=N\c1sc2c(c1-c1nc3ccccc3s1)CCCC2)/c1ccco1
  A = 0 | B = 5 | C = 99 | D = 101
[35] CC1=NC(C(F)(F)F)(C(F)(F)F)C(C#N)=C(C)N1
  A = 17 | B = 4 | C = 101 | D = 101
[36] Cc1cc2ncn(CCC3CCCCC3)c2cc1C
  A = -11 | B = -36 | C = 104 | D = 105
[37] CC(=O)N(/C=C1\Sc2ccccc2C1=O)c1ccc(C)c(C)c1
  A = -1 | B = / | C = 115 | D = 126
[38] COC(=O)c1cc(NCc2ccccc2)ccc1N1CCOCC1
  A = -6 | B = -37 | C = 105 | D = 103
[39] CCc1ccc2c(c1)c1n[nH]c(=S)nc1n2CC
  A = 17 | B = -26 | C = 104 | D = 101
[40] Cc1ccsc1C=Nc1ccccc1C(=O)c1ccccc1
  A = 0 | B = / | C = 103 | D = 105
[41] O=C(Oc1ccc(-c2nnco2)cc1)c1oc2ccccc2c1COc1ccccc1
  A = 16 | B = -5 | C = 115 | D = 121
[42] CC1=C(C#N)C(C(F)(F)F)(C(F)(F)F)N=C(C2CCCCC2)N1
  A = -8 | B = 9 | C = 103 | D = 100
[43] Cn1c(=O)c2c(nc(SCSc3nc4c(c(=O)n(C)c(=O)n4C)n3C)n2C)n(C)c1=O
  A = / | B = -13 | C = 102 | D = 107
[44] CCCCn1c(SCC(=O)Nc2ccccc2)nc2ccccc2c1=O
  A = 6 | B = -36 | C = 100 | D = 101
[45] COc1ccc(N2CCN(C(=O)C3(S(=O)(=O)c4ccc(C)cc4)CC3)CC2)cc1
  A = -2 | B = 7 | C = 99 | D = 102

Pulled by structure from the list above, 6 records:
Key to letters – A = Mtb MbtI inh; B = MenB inh; C = PV pol inh; D = PV pol inh intensity
[31] Cn1cnc2c(oc3ccccc32)c1=O
  A = 0 | B = -10 | C = 101 | D = 103
[40] Cc1ccsc1C=Nc1ccccc1C(=O)c1ccccc1
  A = 0 | B = / | C = 103 | D = 105
[32] Cc1oc2cc(OC(C)C)ccc2c(=O)c1Oc1ccccc1
  A = -16 | B = -25 | C = 99 | D = 102
[33] O=C(NC1=NCCCN1)c1c(Cl)cccc1Cl
  A = -12 | B = -28 | C = 101 | D = 106
[43] Cn1c(=O)c2c(nc(SCSc3nc4c(c(=O)n(C)c(=O)n4C)n3C)n2C)n(C)c1=O
  A = / | B = -13 | C = 102 | D = 107
[45] COc1ccc(N2CCN(C(=O)C3(S(=O)(=O)c4ccc(C)cc4)CC3)CC2)cc1
  A = -2 | B = 7 | C = 99 | D = 102

Remaining list, next part:
Key to letters – A = Mtb MbtI inh; B = MenB inh; C = PV pol inh; D = PV pol inh intensity
[46] COC(=O)c1ccc(COC(=O)c2c(C)nn(Cc3ccccc3Cl)c2Cl)o1
  A = 9 | B = -26 | C = 98 | D = 92
[47] O=C(O)CCN1C(=O)/C(=C/c2ccc(-c3ccc(Cl)cc3Cl)o2)SC1=S
  A = 13 | B = -7 | C = 106 | D = 105
[48] COc1ccc(CN2CCC(C(=O)NC3CCCC3)CC2)cc1OC
  A = / | B = 16 | C = 102 | D = 108
[49] CC(C)c1ccc(S(=O)(=O)N2CCN(CC(=O)C(C)(C)C)CC2)cc1
  A = 3 | B = -2 | C = 101 | D = 103
[50] C=CCNC(=O)C1(c2cccs2)CCOCC1
  A = 11 | B = 7 | C = 102 | D = 108
[51] Cc1noc(C)c1NC(=O)NCc1csc(-c2cccs2)n1
  A = -103 | B = -2 | C = 100 | D = 99
[52] C=CCn1c(=O)[nH]c2nc3cc(N=CN(C)C)ccc3nc2c1=O
  A = 6 | B = -49 | C = -6.0* | D = 76*
[53] CC(=O)Nc1cccc(OCCCNS(=O)(=O)c2ccc(F)cc2)c1
  A = -9 | B = -35 | C = 102 | D = 104
[54] C=CCn1c(=O)c2ccc(C(=O)NCc3ccccc3)cc2n(CC(=O)n2nc(N)cc2C)c1=O
  A = -1 | B = -1 | C = 99 | D = 97
[55] Cc1ccc(F)c(NC(=O)C2CCCCC2C(=O)O)c1 (stereo not given)
  A = -10 | B = -26 | C = 102 | D = 100
[56] CCOc1cc(/C=N/n2c(C)csc2=NC(C)C)ccc1O
  A = 7 | B = -50 | C = 100 | D = 104
[57] O=C(Nc1nccs1)c1cccc(S(=O)(=O)N2CCc3ccccc32)c1
  A = 0 | B = -11 | C = 95 | D = 98
[58] Cc1ccc2c(c1)C(c1ccccc1)CC(C)N2S(=O)(=O)c1cccc(Cl)c1 (stereo not given)
  A = -8 | B = -2 | C = 100 | D = 102
[59] CCSc1nnc(C2CCCN(C(=O)NCc3ccccc3)C2)n1C (stereo not given)
  A = -7 | B = -42 | C = 105 | D = 102
[60] C=CCn1c2ccccc2c2nn(C)c(=S)nc21
  A = 2 | B = -3 | C = 106 | D = 107
[61] Cc1cc(N)n(-c2ncnc3sc4c(c23)CCCC4)n1
  A = / | B = -2 | C = 111 | D = 112
[62] Cc1csc(=O)n1CCC(=O)OCC(=O)NC1CCS(=O)(=O)C1 (stereo not given)
  A = 1 | B = -14 | C = 100 | D = 106
[63] Cc1ccccc1C(=O)c1cccn1CC(=O)NCCCN1CCOCC1
  A = 8 | B = 7 | C = 103 | D = 102
[64] O=C(NC1CCCCC1)N1CCCCCCC1
  A = 3 | B = 6 | C = 102 | D = 96
[65] CCOC(=O)Cn1c(=O)c2cnc3c(c(C)nn3C)c2n1C
  A = 15 | B = -7 | C = 102 | D = 103
[66] CC(NC(=O)NC1CCCCC1)C(c1ccccc1)N1CCOCC1 (stereo not given)
  A = -4 | B = -30 | C = 104 | D = 100
[67] CCCCn1c(C)c(C)c(S(=O)(=O)c2ccccc2)c1N
  A = 13 | B = -14 | C = 104 | D = 113
[68] CCOc1cccc2cc(-c3nc4ccccc4s3)c(=O)oc12
  A = -21 | B = -9 | C = 102 | D = 108
[69] Cc1ccc(Cn2cc3c(n2)-c2c(oc(C(=O)Nc4cc(C)ccc4C)c2C)CC3)cc1
  A = 32 | B = -12 | C = 102 | D = 102
[70] COc1ccc(/C(O)=C2\C(=O)C(=O)N(CCCN(C)C)C2c2cc(OC)c(OC)c(OC)c2)cc1Cl (stereo not given)
  A = -17 | B = -16 | C = 102 | D = 106
[71] C=CCNC(=O)c1c(N)n(Cc2ccc(OC)cc2)c2nc3ccccc3nc12
  A = -8 | B = 8 | C = 110 | D = 110
[72] Cc1ccc(Nc2ccc(NCc3ccccc3)nn2)cc1C
  A = 1 | B = -4 | C = 102 | D = 107
[73] O=C(/C=C/c1ccc(Cl)cc1)OCC(=O)c1ccccc1
  A = -6 | B = / | C = 102 | D = 106
[74] Cc1ccc(-c2cc(C(=O)N3C(C)CCCC3C)[nH]n2)cc1 (stereo not given)
  A = -1 | B = -29 | C = 104 | D = 105
[75] O=C(NCc1ccccc1)C(c1ccco1)N(C(=O)c1csnn1)c1ccccc1 (stereo not given)
  A = -8 | B = -23 | C = 99 | D = 101
[76] Cc1cc(C)c2c(c1)/C(=N\OCC(=O)N1CCCc3ccccc31)C(=O)N2
  A = 5 | B = -41 | C = 101 | D = 105
[77] CN1CCCN(C(=O)C2CCCCN2S(=O)(=O)c2ccccc2)c2nc3ccccc3nc21 (stereo not given)
  A = -5 | B = -48 | C = 101 | D = 99
[78] CCOc1ccc2nc(N3CCC(C(=O)N4CCCC4)CC3)sc2c1
  A = 0 | B = 16 | C = 99 | D = 102
[79] Cc1cc(NC(=O)C(C)C)nc2c1c(=O)oc1ccccc12
  A = 3 | B = -17 | C = 105 | D = 105
[80] c1csc(CNc2nc(-c3cccs3)nc3ccccc23)c1
  A = 119 | B = -1 | C = 103 | D = 109
[81] COc1ccc(N2C(=O)/C(=C\c3ccco3)N=C2SCC(=O)c2cc(C)n(C)c2C)cc1Cl
  A = -10 | B = -14 | C = 106 | D = 102
[82] O=C(O)CCn1c(SCCOc2ccccc2)nc2ccccc21
  A = 4 | B = -26 | C = 101 | D = 98
[83] CC1(C)Cc2ccccc2C(C(Cc2ccccc2)C(N)=O)=N1 (stereo not given)
  A = / | B = -20 | C = 99 | D = 102
[84] Oc1ccccc1C1OCC(C2CC=CCC2)CO1 (stereo not given)
  A = -8 | B = 36* | C = 104 | D = 102
[85] O=C(NCCc1c[nH]c2ccccc12)Nc1ccccc1
  A = 0 | B = 2 | C = 105 | D = 99
[86] OCC#CCSc1nc2ccccc2n1Cc1ccccc1
  A = 0 | B = -16 | C = 103 | D = 101
[87] Cc1cc(Oc2ccc3c(c2)OCO3)nc2ccccc12
  A = 3 | B = -41 | C = 100 | D = 100
[88] Cc1ccc(S(=O)(=O)NCCC#N)cc1
  A = -8 | B = -21 | C = 105 | D = 101
[89] O=C(Nc1nc(-c2ccccc2)nc2c1C(=O)CCC2)c1ccccc1
  A = / | B = -1 | C = 114 | D = 111
[90] COc1ccc(C(OCC(O)CN2CCC(C(N)=O)CC2)c2ccc(OC)cc2)cc1 (stereo not given)
  A = 5 | B = -26 | C = 104 | D = 106
[91] O=S(=O)(Cc1nc2ccccc2s1)c1ccccc1
  A = -4 | B = / | C = 101 | D = 103
[92] CCC1(C)CC2=C(CO1)Cc1c(nc(SCC(=O)Nc3ccc(C)cc3)n(-c3ccccc3)c1=O)N2 (stereo not given)
  A = 11 | B = 6 | C = 100 | D = 100

Screening data as filed in PubChem.
